Compound activity (PubChem)
VDR inhibitor = Inhibitors of the vitamin D receptor (VDR): qHTS; VDR-SRC2-3 peptide fluorescence polarization, 2 h; AID 504847, 2011; actives 0.93% (n = 400,000); Vitamin D3 receptor (Homo sapiens), P11473; Potency, µM, without a hit: max response, negative = inhibition, actives largely listed as inhibitors; active = well fitted inhibition curve with a large enough effect; inconclusive = small, poorly fitted or top-dose-only effect, or another doubt; inactive = no such curve, though single readings can be large or run the other way; also: series mostly up to about 120 µM
Target sequence (P11473 whole entry, looked up): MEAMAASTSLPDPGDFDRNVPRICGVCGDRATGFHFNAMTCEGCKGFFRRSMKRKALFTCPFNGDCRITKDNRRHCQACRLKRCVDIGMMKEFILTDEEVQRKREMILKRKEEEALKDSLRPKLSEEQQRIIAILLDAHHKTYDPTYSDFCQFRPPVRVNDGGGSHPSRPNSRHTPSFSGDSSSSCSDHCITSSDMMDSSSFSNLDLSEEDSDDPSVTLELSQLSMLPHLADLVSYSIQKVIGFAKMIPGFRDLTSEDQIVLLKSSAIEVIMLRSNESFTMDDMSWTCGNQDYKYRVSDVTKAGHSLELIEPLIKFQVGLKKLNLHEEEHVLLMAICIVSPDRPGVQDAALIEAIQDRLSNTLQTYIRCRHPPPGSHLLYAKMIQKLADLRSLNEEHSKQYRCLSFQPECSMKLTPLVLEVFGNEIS
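After 23 nl compound addition and a short centrifugation, plates sat for 2 hours at ambient temperature; polarization of fluorescence then indicated loss of VDR binding to peptide SRC2-3.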
* = called active by the depositor; ? = inconclusive; & = joins results of further samples. % is scaled to controls: 0 for no effect and ±100 for the full control effect; potency is read from the fitted curve at half-maximal effect.

Preview:
VDR inhibitor | canonical_smiles
20.5% | Fc1ccccc1/C=N/Nc1nn[nH]n1
-3.1% | COc1ccc2nc(NC(=O)Cn3cnc4c(=O)n(C)c(=O)n(C)c43)sc2c1
12.0% | c1ccc(CSc2n[nH]c(-c3ccco3)n2)cc1
? | CN1CC[C@@]2(CCCN(C(=O)c3cc(C(F)(F)F)cc(C(F)(F)F)c3)C2)C1
2.6% | C=CCn1c(SCC(=O)N2CCc3ccccc3C2)nnc1-c1ccncc1
-5.9% | COc1cccc(OCC(Cn2cnc3ccccc32)OC(C)=O)c1 (stereo unspecified)

The listing, repeating the preview:
VDR inhibitor | canonical_smiles
20.5% | Fc1ccccc1/C=N/Nc1nn[nH]n1
-3.1% | COc1ccc2nc(NC(=O)Cn3cnc4c(=O)n(C)c(=O)n(C)c43)sc2c1
12.0% | c1ccc(CSc2n[nH]c(-c3ccco3)n2)cc1
? | CN1CC[C@@]2(CCCN(C(=O)c3cc(C(F)(F)F)cc(C(F)(F)F)c3)C2)C1
2.6% | C=CCn1c(SCC(=O)N2CCc3ccccc3C2)nnc1-c1ccncc1
-5.9% | COc1cccc(OCC(Cn2cnc3ccccc32)OC(C)=O)c1 (stereo unspecified)
-4.1% | C[N+](C)(C)CCCCCCC(=O)/C=N/O
-6.1% | COc1cc2[nH]c(=O)n(Cc3ccc(C(=O)NCc4ccccc4)cc3)c(=O)c2cc1OC
1.9% | O=C(Cn1cnc(Cl)c1Cl)c1ccc(F)cc1
4.2% | O=C(Nc1ccccc1)c1sc(Cl)nc1-c1ccccc1
4.8% | Cn1c(SCC(=O)Nc2ccc(N3CCOCC3)cc2)nnc1-c1ccco1
7.8% | O=C(Nc1cc(S(=O)(=O)N2CCCCC2)ccc1Cl)C1=NN(c2ccccc2)C(=O)CC1
-11.0% | O=C(c1ccc(F)cc1)C(C(=O)N1CCCCC1)n1ccccc1=O (stereo unspecified)
-17.9% | CCOc1ccc(NC(=O)CC2C(=O)N(c3ccc(OCC)cc3)C(=S)N2C2CC2)cc1 (stereo unspecified)
-11.3% | COc1ccc(NC(=O)CSc2nnc(Cn3c(=O)sc4ccccc43)n2C)cc1OC
15.9% | CCOC(=O)CNC(=S)N(CCCN1CCCCC1)Cc1cccs1
-2.4% | O=S(=O)(NCC(O)c1ccccc1)c1ccc(-c2ccccn2)s1 (stereo unspecified)
-17.5% | COc1ccc(CCNC(=O)c2ccccc2NC(=O)CN2CCN(c3ccccc3O)CC2)cc1
-1.7% | CC(NC(=O)CCSCCC(=O)NC(C)c1ccccc1)c1ccccc1 (stereo unspecified)
6.1% | O=C(Nc1ccccc1F)c1ccc2snnc2c1
-0.8% | Cc1ccc(-n2c(Cc3ccccc3)nnc2SCc2nc(-c3cccs3)no2)cc1
-15.4% | Cc1cc(C)nc(NC2=NCCN2C(=O)NC2CCCCC2)n1
89.1µM* | COc1ccc(N2CCN(C(=O)c3ccc(N(C)S(=O)(=O)c4ccc(OC)cc4)cc3)CC2)cc1
-8.8% | Cc1nc(CSc2nnc(N)s2)cs1
8.1% | CCn1nnc2cc(C(=O)Nc3ccc(C(=O)OC(C)C)cc3)ccc21
10.5% | COc1ccc(C)cc1NC(=O)NCc1cccn1Cc1ccccc1
-7.0% | O=C(Nc1ccc2oc(-c3cccnc3)nc2c1)c1ccc(Br)cc1
6.6% | Cc1cccc(Cn2c(CNS(=O)(=O)c3ccc(Cl)s3)nc3cccnc32)c1
3.9% | COc1ccc(Nc2ncnc3ccc(Br)cc23)c(OC)c1
-21.1% | NC(=O)CSc1nnc2ccc(-c3ccc(F)cc3)nn12
-14.9% | COc1ccc(CCn2c(=S)[nH]c(=O)c3c(C)cc(C)nc32)cc1OC
17.5% | Cc1ccc(CNC(=O)Cc2ccc(NC3=NC4CS(=O)(=O)CC4S3)cc2)cc1 (stereo unspecified)
6.9% | CC1(C(=O)O)CCC(C(=O)Nc2cccc(F)c2)C1(C)C (stereo unspecified)
? | COc1ccc(C2(C(=O)c3ccccc3)C(=O)c3ccccc3C2=O)cc1
-1.1% | Cc1nnc2sc(SCc3ccc(Br)cc3)nn2c1=O
-12.7% | Cc1ccc(OC(=O)C23CC4CC(CC(C4)C2)C3)c(C)n1
-14.6% | CC(=O)c1ccc(NC(=O)CSc2nc3nn(-c4ccccc4)c(=O)c-3c3n2CCCCC3)cc1
-13.0% | COc1cc(OC)cc(C(=O)n2cnnc2N)c1
1.8% | COc1ccc(CN=CC2=C(O)CC(C)(C)CC2=O)cc1
0.5% | CCCCNC(=S)NC1CCCC1
13.4% | Cc1ccc2c(CC(=O)Nc3cccc(C(F)(F)F)c3)coc2c1
-13.1% | CC(C)(C)NC(=O)CN1CCCN(C(=O)c2cccc(S(=O)(=O)N3CCc4ccccc43)c2)CC1
15.8% | CCOc1ccc(S(=O)(=O)NCCC(=O)NCCc2ccc(OCC)c(OCC)c2)cc1
7.5% | OCCCC1CCCCN1Cc1nc(Cc2ccccc2Cl)no1 (stereo unspecified)
-16.0% | Clc1ccc(/C=N/N2CCN(Cc3ccccc3Cl)CC2)cc1
-5.5% | CCC(=O)Oc1ccc(/C=C(\C#N)c2nc3ccccc3[nH]2)cc1OC
-5.2% | O=C(O)CCS(=O)(=O)c1cccc2cccnc12
-24.1% | O=C(NCc1n[nH]c(=S)n1-c1cccc(C(F)(F)F)c1)c1ccc(S(=O)(=O)N2CCCC2)cc1
-5.1% | Cc1cc2ccccc2nc1SCC(=O)N1CCCC1
-2.4% | Cc1ccc(NCc2n[nH]c(=S)n2-c2cccc(Cl)c2)cc1

A draw from above in order of SMILES length, rising.
VDR inhibitor | canonical_smiles
1.8% | COc1ccc(CN=CC2=C(O)CC(C)(C)CC2=O)cc1
-16.0% | Clc1ccc(/C=N/N2CCN(Cc3ccccc3Cl)CC2)cc1
? | COc1ccc(C2(C(=O)c3ccccc3)C(=O)c3ccccc3C2=O)cc1
-14.9% | COc1ccc(CCn2c(=S)[nH]c(=O)c3c(C)cc(C)nc32)cc1OC
-24.1% | O=C(NCc1n[nH]c(=S)n1-c1cccc(C(F)(F)F)c1)c1ccc(S(=O)(=O)N2CCCC2)cc1

5 entries from above in a different format:
compound	VDR inhibitor
Clc1ccc(/C=N/N2CCN(Cc3ccccc3Cl)CC2)cc1	-16.0%
CCC(=O)Oc1ccc(/C=C(\C#N)c2nc3ccccc3[nH]2)cc1OC	-5.5%
O=C(O)CCS(=O)(=O)c1cccc2cccnc12	-5.2%
O=C(NCc1n[nH]c(=S)n1-c1cccc(C(F)(F)F)c1)c1ccc(S(=O)(=O)N2CCCC2)cc1	-24.1%
Cc1cc2ccccc2nc1SCC(=O)N1CCCC1	-5.1%

New compounds follow:
VDR inhibitor | canonical_smiles
-26.6% | CCCOc1ccc(NC(=O)CC2Nc3ccccc3NC2=O)cc1 (stereo unspecified)
-2.5% | CC(C)C(OC(=O)c1cc2sccc2n1C)C(=O)NCC1CCCO1 (stereo unspecified)
-4.0% | CC(=O)N1CCC2(CC1)OC(=O)C(C)=C2C(=O)Nc1ccccc1C(F)(F)F
3.9% | COc1ccc2oc(=O)cc(CN(C)Cc3ccccc3)c2c1
-15.4% | O=C(NCc1ccc(Cl)cc1)C1CCN(C(=O)c2ccc(Cl)cc2)CC1
1.4% | O=S1(=O)N[C@@H](CC2CCCCC2)COc2cc(Br)ccc21
0.2% | COC(=O)c1c(NC(=O)c2ccco2)sc(C(=O)N2CCCC2)c1C
9.0% | COc1ccc(OC)c(NS(=O)(=O)c2ccc(-c3cc(C)no3)s2)c1
6.2% | Cc1onc(-c2ccccc2)c1C(=O)NCCc1c[nH]c2ccccc12
0.8% | COc1cccc(N/C=C/C(=O)c2ccc(C)cc2)c1
-12.0% | O=C(OCC(=O)N1CCN(C(=O)COC(=O)c2ccccc2NCCO)CC1)c1ccccc1NCCO
-13.1% | CC1(C)OC(=O)CC1C(=O)NCc1ccccc1 (stereo unspecified)
-1.8% | CCc1nnc(NS(=O)(=O)c2ccccc2)s1
-13.2% | CC(C)CC(=O)Nc1ccc(F)c(Cl)c1
-0.4% | CN(C)S(=O)(=O)c1ccc(Cl)c(C(=O)OCC(=O)NC(=O)NC2CCCC2)c1
-6.7% | CC(=O)c1nc(N2C(=O)CC(Cc3ccc(C)cc3)C2=O)sc1C (stereo unspecified)
-12.0% | CCOC(=O)C1=C(CS(=O)(=O)c2ccc(C)c(C)c2)NC(=O)NC1c1ccccc1OCC (stereo unspecified)
-3.8% | CCCCc1nc(NCc2ccccc2)c(C#N)c2c1COC(C)(C)C2
13.5% | O=S1(=O)CCN(Cc2ccc(F)cc2)CC1
3.8% | COc1ccc(-c2n[nH]c(C)c2-c2ccc(Cl)cc2)c(O)c1OC
9.0% | COc1cccc(CN(C)C(=O)c2cccc(S(=O)(=O)N3CCN(c4ccc(F)cc4)CC3)c2)c1OC
20.9%&-8.5% | COC(=O)C1=C[C@@H](C(=O)OC)[C@@H]2C3=C(C(=O)[C@@]2(C)NC(=O)c2ccccc2)[C@H](c2ccccc2)[C@@H]2C(=O)NC(=O)[C@@H]2[C@@H]3C1
-9.9% | CCOc1ccc(S(=O)(=O)N(C)c2ccc(OCC(=O)NCc3ccc(C(=O)OC)cc3)cc2)cc1
-2.2% | Cc1ccc(CNC(=O)c2cnc(-c3ccccn3)nc2C(F)(F)F)cc1
5.9% | CSc1cccc(NC(=O)CCCOc2ccc(Cl)cc2Cl)c1
-1.0% | COc1ccc(S(=O)(=O)N2CC(O)CC2C(=O)Nc2cccnc2)cc1 (stereo unspecified)
? | CC(C)(C)c1cc[n+](/C(C(=S)NC2CC2)=C(/[O-])c2ccc(Cl)s2)cc1
-7.1% | COCCN(C(=O)c1cc(Cl)nc2ccccc12)c1c(N)n(Cc2ccccc2)c(=O)[nH]c1=O
-8.8% | COc1cccc(NC(=O)CN(C)C(=O)c2cc(-c3ccc(C)o3)nc3ccccc23)c1
-0.7% | Cc1cc(C)c(NC(=O)CN2C(=O)NC3(CCOc4ccccc43)C2=O)c(C)c1 (stereo unspecified)
9.6% | COc1ccc(-c2nc(CSCC(=O)NC3CCN(Cc4ccccc4)CC3)c(C)o2)cc1OC
-13.2% | Cc1ccc(S(=O)(=O)N2CCOCC2)cc1C(=O)NCC1CCCO1 (stereo unspecified)
13.2% | CCN1CCN(c2ccc(S(=O)(=O)N3CCCCC3)cc2NC(=O)COc2ccc(F)cc2Cl)CC1
11.2% | O=C(Nc1ccccc1F)c1ccc(CNS(=O)(=O)c2cccc(C(F)(F)F)c2)cc1
-14.9% | O=C(COC(=O)c1ccccc1Br)NCCC1=CCCCC1
? | CC(C)CC(=O)N1CCC(N2CCN(c3ccccc3)CC2)CC1
6.4% | CN1C(=O)c2cccc3c(S(=O)(=O)Nc4ccc(O)c(C(=O)O)c4)ccc1c23
1.2% | COC(=O)Cc1c(O)ccn(CCc2c[nH]c3ccccc23)c1=O
-5.6% | O=C(Nc1ccc(CN2CCCCC2)cc1)c1ccc(Br)o1
-16.7% | CCCc1nn(C)c2c1C(c1ccncc1)C(C#N)=C(N)O2 (stereo unspecified)
3.0% | CCOC(=O)N1CCN(C(=O)c2cccn3c(=O)c4cc(Br)ccc4nc23)CC1
4.4% | COc1ccc(C2C(C(=O)OCC(=O)NC(C)(C)C)CCC(=O)N2c2ccc(C)cc2)cc1OC (stereo unspecified)
5.2% | COc1ccc(NC(=O)COC(=O)c2ccc3ccccc3n2)c(OC)c1
1.5% | O=C(COC(=O)c1c2c(nc3ccccc13)CCCC2)c1cccs1
-12.7% | O=C1c2ccc3c4c(ccc(c24)C(=O)N1CCCCO)C(=O)N(CCCCO)C3=O
-4.3% | NC(=O)C1CCN(C(=O)c2cc(S(=O)(=O)N3CCN(c4ccccc4)CC3)ccc2Cl)CC1
-8.3% | CC(C)(C)C1CCC(=NOC(=O)c2ccc(F)cc2)CC1 (stereo unspecified)
-6.2% | Fc1ccc(-c2nc3c(Cl)cc(C(F)(F)F)cn3c2Cl)cc1
20.4% | O=Cc1cn(CCC(=O)O)nc1-c1cccc(Cl)c1
-9.6% | C=CCn1c(-c2ccccc2)n[nH]c1=S

Remaining list, next part
VDR inhibitor | canonical_smiles
9.2% | CCN1CC(CN(C)Cc2nc(-c3ccc(OC)c4ccccc34)oc2C)CC1=O (stereo unspecified)
7.7% | S=C(Nc1ccccc1Cl)N(Cc1cccnc1)Cc1ccco1
-0.1% | CCCS(=O)(=O)N1CCCC(C(=O)NCCCN(CC)c2cccc(C)c2)C1 (stereo unspecified)
-9.3% | Cc1cc([N+](=O)[O-])ccc1-c1ccc(/C=N/NC(=O)Cc2ccccc2)o1
-13.5% | COc1ccc(/C(O)=C2/C(=O)C(=O)N(Cc3cccnc3)C2c2ccccn2)cc1 (stereo unspecified)
-12.9% | N/C(=N\N=Cc1ccc2c(c1)OCO2)NN=Cc1ccc2c(c1)OCO2
-4.9% | COc1ccc2c(c1OC)C(=O)N1C2SC(C)(C)[C@H]1C(=O)NC1CCCC1 (stereo partly specified)
-0.3% | CN(C)c1ccc(Nc2nc3ccccc3n3nnnc23)cc1
6.1% | CC(=O)Nc1ccc(NC(=O)CCc2c(C)nc3c(c(C)nn3-c3ccccc3)c2C)cc1
4.2% | Cc1cc(NC(=O)C23CCC(C)(C(=O)O2)C3(C)C)no1 (stereo unspecified)
14.0% | CN1CCN(NC(=O)Nc2ccc(F)cc2)CC1
1.6% | COc1ccc(NC(=O)c2ccc(-c3nc(CSc4ccccc4)c(C)o3)cc2)cc1OC
2.9% | COc1ccccc1N1CCN(C(=O)C(=O)c2cn(CC(=O)N3CCCCCC3)c3ccccc23)CC1
-23.8% | C/C(=N\NS(=O)(=O)c1cccc([N+](=O)[O-])c1)c1cccnc1
-10.3% | Clc1cccc(-c2nc3ccccn3c2Nc2ccc3c(c2)OCCO3)c1

These rows are one share of the data, so the mix of outcomes need not match the whole.
